GIRK2 activ: activators of human GIRK2 potassium channels | G protein-activated inward rectifier potassium channel 2 (Homo sapiens), P48051 | HEK293-GIRK2 thallium flux, Thallos fluorescence | 63,000 compounds, 0.05% hits | calls only for hits at 25 µM;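 active means among the strongest 0.2% of first-round signals and kept after retests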;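 further: first round at about 10 µM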
Target sequence (P48051 whole entry, looked up): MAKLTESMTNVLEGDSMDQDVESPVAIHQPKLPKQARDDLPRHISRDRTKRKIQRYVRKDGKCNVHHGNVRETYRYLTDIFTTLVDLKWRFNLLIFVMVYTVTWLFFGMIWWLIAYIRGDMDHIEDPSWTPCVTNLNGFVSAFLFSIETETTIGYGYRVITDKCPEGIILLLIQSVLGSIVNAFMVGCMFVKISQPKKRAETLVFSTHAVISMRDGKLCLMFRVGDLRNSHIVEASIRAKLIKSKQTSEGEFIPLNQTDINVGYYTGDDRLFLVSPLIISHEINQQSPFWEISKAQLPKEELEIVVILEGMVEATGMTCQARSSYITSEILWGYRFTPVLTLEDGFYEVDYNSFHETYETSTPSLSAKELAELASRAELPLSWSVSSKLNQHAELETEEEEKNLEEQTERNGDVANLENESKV
Calls only; i = inactive. Not all compounds are listed (hit frequency here may not be typical).

GIRK2 activ	canonical_smiles
i	C/C(Cl)=C\Cn1c(NCc2ccco2)nc2c1c(=O)n(C)c(=O)n2C
i	O=C(c1ccc([N+](=O)[O-])o1)N1CCN(Cc2nnnn2-c2ccccc2)CC1
i	CC(C)CN1C(=O)C(C)(C)COc2ccc(NC(=O)Nc3ccc4c(c3)OCO4)cc21
i	Cc1ccc(-c2ccc(N3CCCC(C(=O)NCCc4cccnc4)C3)nn2)cc1C (centres undefined)
i	COCCNC(=O)CCc1csc(NC(=O)c2ccc(F)cc2)n1
i	O=S(=O)(c1c(Cl)cccc1Cl)N1CCC(Cc2ccccc2)CC1
i	C=CCCC(=O)NC1CC(=O)N(C2CC2)C1 (centres undefined)
i	CCOC(=O)COc1ccc2c(=O)c(-c3ccccc3OC)c(C)oc2c1
i	COCCCNC(=O)c1c(N)n(/N=C\c2cccs2)c2nc3ccccc3nc12
i	CN(CC(=O)NCc1ccco1)c1nc2c(C(F)(F)F)cccc2s1
i	COCCNC(=O)NCC1(CO)CC1
i	Cc1nn(C2CCS(=O)(=O)C2)c(C)c1N1CCN(CC(=O)Nc2ccccc2F)CC1 (centres undefined)
i	O=S(=O)(Cc1nc(-c2cccc(Cl)c2)no1)c1ccccc1
i	O=c1c2nc(N3CCOCC3)sc2c(-c2ccccc2)nn1Cc1cccc2ccccc12
i	COc1ccc(NC(=O)CSc2nccn2-c2cccc(C(=O)Nc3ccccc3)c2)c(OC)c1
i	Cc1ccc(-n2ncc3c(=O)n(CC(=O)N4CCCCC4)cnc32)c(C)c1
i	COc1cccc2cc(C(=O)NCCc3c[nH]c4ccccc34)oc12
i	O=C(c1ccco1)N1CCN(Cc2nc(-c3ccc(Cl)cc3)cs2)CC1
i	COc1cc(OC)c(NC(=O)CSc2ccc(S(=O)(=O)c3cccc(F)c3)nn2)cc1Cl
i	COC(=O)c1ccc(N/C=C(\C#N)c2nc(-c3cc4cc([N+](=O)[O-])ccc4oc3=O)cs2)cc1
i	COc1ccc(-c2nnc(NC(=O)NCc3ccc(OC)c(OC)c3)o2)c(OC)c1
i	Cc1ccc(C2C(=C(O)c3ccc4c(c3)OCCO4)C(=O)C(=O)N2CCN(C)C)o1 (centres undefined)
i	COc1cccc(CNc2ncc3c(=O)n(C4CCCC4)c(=O)[nH]c3n2)c1OC
i	COc1ccc(N2CCN(Cc3nc4c(c(=O)n(C)c(=O)n4C)n3Cc3ccccc3C)CC2)cc1
i	COc1ccc(CNC(=O)Cn2cccc(S(=O)(=O)N3CCC(C)CC3)c2=O)cc1
i	C=CCNC(=O)c1cc(-c2cccs2)nn1C
i	NNC(=O)COc1ccc2c(c1)O/C(=C\c1cccs1)C2=O
i	CC(C)c1nc(CN(C)C(=O)N[C@H](C(=O)N[C@@H](Cc2ccccc2)C[C@H](O)[C@H](Cc2ccccc2)NC(=O)OCc2cncs2)C(C)C)cs1
i	CCOC(=O)CCC(=O)NC(C)Cc1cccs1 (centres undefined)
i	Cc1c(C)n(Cc2ccco2)c2ncnc(Nc3ccc4c(c3)OCO4)c12

Among those listed so far, 2 contain an aryl thioether with sulfur outside any ring:
GIRK2 activ	canonical_smiles
i	COc1ccc(NC(=O)CSc2nccn2-c2cccc(C(=O)Nc3ccccc3)c2)c(OC)c1
i	COc1cc(OC)c(NC(=O)CSc2ccc(S(=O)(=O)c3cccc(F)c3)nn2)cc1Cl

Other entries
GIRK2 activ	canonical_smiles
i	COc1ccc2nc(OC3CCN(C(=O)c4cc(-c5ccccc5)on4)CC3)sc2c1
i	COc1ccc(-c2noc(-c3cccn(CC(=O)Nc4cccc(SC)c4)c3=O)n2)cc1OC
i	O=C(Cc1ccc(-n2c(=O)c3ccccc3n(Cc3c(F)cccc3Cl)c2=O)cc1)NC1CC1
i	COCC(=O)NCC1(c2cccs2)CCCC1
i	Cn1c(=O)c2c(nc(N3CCN(c4ccccc4F)CC3)n2CC(=O)O)n(C)c1=O
i	Cn1c(C2CCC(CNC(=O)CSc3ncccn3)CC2)nc2ccccc21 (centres undefined)
i	COc1ccc2c(c1)OC[C@]1(O)c3cc4c(cc3O[C@H]21)OCO4
i	Cc1nc(C)c(C(=O)Nc2ccc3c(c2)N(S(=O)(=O)c2ccc(F)cc2)CCC3)s1
i	O=C(c1cc2ccccc2oc1=O)N1CCC(c2nnc(-c3ccco3)o2)CC1
i	Cc1ccc(C)c(S(=O)(=O)N2CC(c3nc(Cc4ccccc4)no3)C2)c1
i	O=C(NCCOc1ccccc1)N1CCC2(CC1)OCCCO2
i	Cc1nc(C)n(CC(C)C(=O)Nc2cc(Cl)ccc2C)n1 (centres undefined)
i	Cc1cc(C(F)(F)F)nc(CCNC(=O)C(c2ccccc2)c2ccccc2)n1
i	COc1ccccc1C1C(C(=O)c2sc(C)nc2C)=C(O)C(=O)N1CCN(C)C (centres undefined)
i	Cc1ccc(S(=O)(=O)c2cn(CC(=O)Nc3cccc(C)c3)c3cc4c(cc3c2=O)OCO4)cc1
i	CCCn1c(=O)c2c(nc3n2C(C)C(C)=NN3CCCO)n(C)c1=O (centres undefined)
i	Cc1cc(NC(=O)c2ccc(S(=O)(=O)N(C)C)cc2)n(-c2nc(-c3ccccc3)cs2)n1
i	CCOc1ccccc1NC(=O)c1nnn(-c2ccccc2OCC)c1C
i	O=C(NCCCS(=O)(=O)N1CCN(c2ncccn2)CC1)c1ccc(F)cc1
i	Cc1ccc(CNC(=O)CSC2=Nc3ccccc3N=C(c3ccccn3)C2)cc1
i	Cc1cccc(C(=O)Nc2c(C(=O)NCc3ccco3)[nH]c3ccccc23)c1
i	O=C(Cn1c(-c2ccncc2)nc2ccccc21)NCc1ccco1
i	COCCCNc1nc2ccccc2nc1NS(=O)(=O)c1ccc(Cl)cc1
i	CC(C)(C)OC(=O)COc1ccc2c(c1)O/C(=C\c1cccs1)C2=O
i	Cc1cc(NC(=O)COc2ccc(F)cc2)n(-c2nc3c(cnn3-c3ccc(Cl)cc3)c(=O)[nH]2)n1
i	Cc1ccc(Cn2c(C3CC(=O)N(Cc4ccc(F)cc4)C3)nc3ccccc32)cc1 (centres undefined)
i	CCCCCCCCCCCCCCCCCCCCCCCCC(=O)OC
i	COCC(=O)NCC1(c2ccc(F)cc2)CC1
i	CCNC(=O)c1nnn(-c2ccc(C(F)(F)F)cc2)n1
i	O=C(Cn1cc(-c2ccc(F)cc2)cn1)NCCOc1ccc(F)cc1

Continuation:
GIRK2 activ	canonical_smiles
i	CC12NC(=S)NC(c3ccccc3O1)C2C(=S)Nc1ccccc1 (centres undefined)
i	COc1cc[nH]c1/C=C1\C(=O)Nc2ccc(F)c(C#CC3(O)CCOCC3)c21
i	NC(=O)c1ccc(NC(=O)CN2CCC(c3cccs3)CC2)cc1
i	O=C(c1nc2ccccc2s1)N1CCC(Oc2ccc(Cl)cn2)CC1
i	CCOc1cn(C)c(C(=O)Nc2ccc3c(c2)OCO3)cc1=O
i	O=C(Nc1nc2c(s1)CN(S(=O)(=O)C1CC1)CC2)C1(c2ccccc2)CCOCC1
i	CCOc1ccc2c(-c3cc4cc(Br)ccc4oc3=O)cc(=O)oc2c1
i	CCc1ccc(NC(=O)Cn2nc(-c3cccs3)c3sc(N4CCCCC4)nc3c2=O)cc1
i	O=C(NCCOc1ccc(F)cc1)C1CCCN(c2ccc(-c3cccs3)nn2)C1 (centres undefined)
i	CC1CC(C)CN(CC(O)COc2ccc(C34CC5CC(CC(C5)C3)C4)cc2)C1 (centres undefined)
i	CCOc1ccccc1-n1c(C)c(C)n2c3c(=O)n(C(C)C(C)=O)c(=O)n(C)c3nc12 (centres undefined)
i	CS(=O)(=O)C1CCN(S(=O)(=O)c2ccc(Br)s2)C1 (centres undefined)
i	O=C1CC(NC(=O)c2cncc(Br)c2)CN1 (centres undefined)
i	COC(=O)CC1=CC(SCC(=O)NCc2cccs2)=Nc2ccccc2N1
i	Cc1ccc(NC(=O)Cn2nc(C(=O)N3CCOCC3)cc2-c2cccs2)cc1F
i	CCNC(=O)NCC1(c2cccs2)CCCC1
i	CCOc1ccc(-n2nnc(-c3nc(-c4ccc(OC)cc4)no3)c2N)cc1
i	CCOc1cccc(-c2noc(Cn3nc(-c4ccc(C)cc4)ccc3=O)n2)c1
i	Cc1csc(SCC2CCN(C(=O)C3(c4cccs4)CCCC3)CC2)n1
i	COC(=O)c1sc(NC(=O)CCN2CC(C)OC(C)C2)c(C(=O)OC)c1C (centres undefined)
i	N#CCN1CCC(Cn2cnc3ccccc32)CC1
i	CCOc1ccc(S(=O)(=O)NCC2CCN(C(=O)c3ccncc3)CC2)cc1F
i	O=C(NCCc1ccccc1)N1CCN(Cc2nnnn2-c2ccccc2)CC1
i	COc1cccc(C(=O)CN2C(=O)c3ccccc3OC(c3ccccc3)C2=O)c1 (centres undefined)
i	CC(C)NC(=O)CSc1ncc(-c2cccc([N+](=O)[O-])c2)n1-c1ccc(F)cc1
i	CC(C(=O)Nc1ccon1)n1nc(-c2ccccc2)ccc1=O (centres undefined)
i	Cc1ccc(Cl)cc1NC(=O)CN1CCN(S(=O)(=O)N2CCC(C)CC2)CC1
i	O=C1CCCC(=O)N1CCS(=O)(=O)N1CCCC(c2nnc(-c3ccccc3F)s2)C1 (centres undefined)
i	O=C1CCSCC(C(=O)Nc2ccc(Br)cc2F)N1 (centres undefined)
i	Cc1cccc2sc(OC3CN(C(=O)CCCS(=O)(=O)c4ccccc4)C3)nc12

Structures from the list above with a CF3 group (three):
GIRK2 activ	canonical_smiles
i	CN(CC(=O)NCc1ccco1)c1nc2c(C(F)(F)F)cccc2s1
i	Cc1cc(C(F)(F)F)nc(CCNC(=O)C(c2ccccc2)c2ccccc2)n1
i	CCNC(=O)c1nnn(-c2ccc(C(F)(F)F)cc2)n1

Other entries
GIRK2 activ	canonical_smiles
i	CCS(=O)(=O)NCCn1ncc2c(N3CCCCC3)ncnc21
i	O=C(NCc1ccccc1F)C1COCC(=O)N1Cc1cccs1 (centres undefined)
i	COc1ccc(Cl)c2c(=O)c3c([nH]c12)CCN(CC(=O)NCc1ccc(SC)cc1)C3
i	O=C(NCCN1CCN(c2ccccc2F)CC1)c1ccc2c(c1)OCO2
i	CCn1cc(C(=O)Nc2ccc(C(=O)OC)cc2)c(=O)c2cc(Cl)ccc21
i	NS(=O)(=O)c1ccc(CCn2ccn(CC(=O)Nc3ccc(Cl)cc3)c(=O)c2=O)cc1
i	COc1ccc(OC)c(N2CCCn3c2nc2c3c(=O)n(CC(C)C)c(=O)n2C)c1
i	CCc1ccccc1NC(=O)Cn1nc(N2CCCC(C)C2)c2ccccc2c1=O (centres undefined)
i	COc1cccc(CNC(=O)COc2cc(C)nc(N3CCN(c4ccccc4)CC3)n2)c1OC
i	N#C/C(=C\c1c(Cl)cccc1Cl)c1nc2ccccc2s1
i	O=C(CN1CCOCC1)Nc1ccc(Br)cn1
i	Cc1cc(=O)n2c(CCNC(=O)c3cc(C)oc3C)csc2n1
i	COc1ccc(C2c3cccn3CCN2S(=O)(=O)c2ccc(Br)cc2)cc1OC (centres undefined)
i	Cc1cc(NC(=O)C2CCN(C(=O)/C=C/c3ccc4c(c3)OCO4)CC2)no1
i	Cc1cn2c3c(=O)n(CCN4CCOCC4)c(=O)n(C)c3nc2n1-c1ccccc1N
i	COc1ccc(Cl)cc1C(=O)NCCN1CCN(S(C)(=O)=O)CC1
i	CC1SC(=N)N(c2ncc(Cc3ccc(Cl)cc3)s2)C1=O (centres undefined)
i	COCC(=O)Nc1cnc(N2CCN(c3ccccc3)CC2)nc1
i	COc1ccccc1NC(=O)c1ccc(S(=O)(=O)NCc2cccs2)o1
i	COc1ccc(/C=C2\Oc3c(ccc4c3CN(CC3CCCO3)CO4)C2=O)cc1OC (centres undefined)
i	C#CCCCCCCCCCCCCCCCC(=O)O
i	COC(=O)c1sccc1S(=O)(=O)N(CCc1cccs1)Cc1ccoc1
i	COc1ccc(NC(=O)Cn2c(C)cc(C)c(-c3nc(-c4ccccc4)no3)c2=O)cc1OC
i	Cc1nnsc1C(=O)N1CCC(CNC(=O)c2cc(-c3ccc(F)cc3)nn2C)CC1
i	Cc1nnsc1C(=O)NCc1cnn2ccccc12
i	O=C(Cn1cnc2c([nH]c3ccc(Br)cc32)c1=O)NCCc1ccccc1
i	O=C(COc1ccccc1F)Nc1ccc2c(=O)c3cccc(Cl)c3oc2c1
i	CC(=O)[C@]1(O)Cc2c(O)c3c(c(O)c2[C@@H](O[C@H]2C[C@H](N)[C@H](O)[C@H](C)O2)C1)C(=O)c1ccccc1C3=O
i	Cc1ccc2c(NC(=O)c3nnn(-c4nc(C)c(C)s4)c3C)cccc2n1
i	O=C(c1cccs1)N1CCC(c2nnc(-c3ccco3)s2)CC1

Part of the list above in order of length of the SMILES, descending.
GIRK2 activ	canonical_smiles
i	CCn1cc(C(=O)Nc2ccc(C(=O)OC)cc2)c(=O)c2cc(Cl)ccc21
i	CCc1ccccc1NC(=O)Cn1nc(N2CCCC(C)C2)c2ccccc2c1=O (centres undefined)
i	COc1ccc(Cl)cc1C(=O)NCCN1CCN(S(C)(=O)=O)CC1
i	O=C(CN1CCOCC1)Nc1ccc(Br)cn1

New compounds follow.
GIRK2 activ	canonical_smiles
i	CCC(CC)C(=O)N1CCN(c2ncnc3c2nnn3-c2ccc(C)cc2)CC1
i	COc1cccc(-n2c(=O)[nH]c3c(C(N)=O)nc(-c4cccs4)nc32)c1
i	COc1ccc(NC(=O)/C=C/C2=Cc3ccccc3OC2)c([N+](=O)[O-])c1
i	COc1cc(NC(=O)c2csc(-c3cc4ccccc4n3C)n2)cc(OC)c1OC
i	CCOc1ccc(C(=O)Nc2ccc3c(c2)CCC(=O)N3CCC(C)C)cc1
i	CC(Cc1ccccc1)(NC(=O)CN)c1ccccc1 (centres undefined)
i	CCn1nnc2c(N3CC(C(=O)NC4CCSC4=O)C3)ncnc21 (centres undefined)

Source: PubChem (Vanderbilt University)
